# Screening data (PubChem BioAssay)
# Rce1 inhib – blocks yeast Ras-converting enzyme; actives 0.27% (n = 290,000); calls only; yeast membranes, quenched prenylated peptide cleavage fluorescence; Q03530;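 active = fall in fluorescence gain of 50% or more versus controls, with final raw signal at or below 3038400; inconclusive = same 50% fall but final raw signal above 3038400; inactive = fall in fluorescence gain under 50%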;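 also: plate controls were neutral control wells for no effect and wells lacking membranes for full effect; tested at 10 µM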
# eIF4H inh – inhibitors of RNA binding by human eIF4H; Q15056; eIF4H fluorescence polarization binding assay; inhibition, % at 35 µM; actives 0.94% (n = 290,000); AID 2012;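 active = 50% or more with normal probe brightness, or confirmed in later tests; inconclusive = above 50% with abnormal brightness, or retests that disagree; inactive = below 50% or failed in later tests; about a fifth of its hits are not listed in these tables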;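 also: calls also rest on retests at 20 µM and on dose response follow-up; 0% = protein and probe with vehicle and 100% = probe without protein; strong numbers were not always called active; many hits fall short of the cut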
# MT1-MMP act inh – MT1-MMP (human) activation inhibition. actives 0.061% (n = 360,000). GFP/RFP ratio change, % at 20 µM. HT1080 RFP-PRO-GFP cells, GFP/RFP ratio fluorescence, overnight; percent of plate control window, DMSO zero. P50281;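 active = GFP/RFP ratio change of at least 30% with cell ATP level not reduced by more than half and red fluorescence within 50% of control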; also: strong numbers were not always called active
#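 Assay system: HT1080 RFP-PRO-GFP cells | Dosing: 20 µM single dose, 1% DMSO | Incubation: Cells overnight before dosing, compound overnight, 37 °C, 5% CO2 | Evaluation: GFP/RFP fluorescence ratio | Control set: DMSO-only wells and HT1080 RFP-L50D-GFP cell wells as references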
# PABP FP inh – blocks human PABP binding to poly(A) RNA; actives 1% (n = 290,000); fluorescence polarization; inhibition, % at 35 µM; P11940;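 active = 50% or more with normal probe brightness, or confirmed in later tests; inconclusive = above 50% with abnormal brightness, or retests that disagree; inactive = below 50% or failed in later tests; about a fifth of its hits are not listed in these tables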;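 also: calls also rest on retests at 20 µM and on dose response follow-up; controls were probe without protein and protein plus probe with vehicle; some compounds called inactive have numbers as strong as hits; many hits fall short of the cut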
# Target sequence (P11940 whole entry, looked up): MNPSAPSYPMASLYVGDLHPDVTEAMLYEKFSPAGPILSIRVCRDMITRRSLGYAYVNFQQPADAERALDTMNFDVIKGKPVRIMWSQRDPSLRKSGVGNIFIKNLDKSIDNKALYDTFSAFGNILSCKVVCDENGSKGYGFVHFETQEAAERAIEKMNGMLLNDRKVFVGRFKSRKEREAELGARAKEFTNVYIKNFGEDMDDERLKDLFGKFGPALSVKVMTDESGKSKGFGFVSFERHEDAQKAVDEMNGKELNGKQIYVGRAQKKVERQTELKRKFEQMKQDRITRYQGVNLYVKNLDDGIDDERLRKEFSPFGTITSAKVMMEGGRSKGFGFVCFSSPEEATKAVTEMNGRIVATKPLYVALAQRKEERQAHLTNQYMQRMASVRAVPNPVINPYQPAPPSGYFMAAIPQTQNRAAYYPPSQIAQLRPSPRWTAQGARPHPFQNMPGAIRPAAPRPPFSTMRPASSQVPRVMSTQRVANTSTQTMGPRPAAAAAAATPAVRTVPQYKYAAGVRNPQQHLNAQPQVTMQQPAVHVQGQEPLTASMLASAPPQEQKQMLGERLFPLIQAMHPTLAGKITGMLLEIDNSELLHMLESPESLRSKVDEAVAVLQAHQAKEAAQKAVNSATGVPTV
# HIV Env fusion – HIV envelope-mediated fusion inhibition; HeLa-JRFL Env/CEM21 cell fusion, luciferase; inhibition, % at 12.3 µM; actives 1.1% (n = 360,000); AID 651610;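 active = mean replicate inhibition score of at least 50 and every replicate individually at or above 50; inconclusive = only one of the two criteria met; inactive = mean below 50 and not all replicates reaching 50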;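 also: 0% = plate neutral controls and 100% = maraviroc near 300 nM; one replicate is shown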
# CSC inhib – blocks cancer stem cells. cancer stem cell-like cells viability, luminescence. inhibition, % at 7.5 µM. actives 1.1% (n = 300,000). AID 2717;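 active = mean at 75% or more and at least half the replicates too; inconclusive = mean and replicates disagree; tested in HMLE shEcad cells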;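 also: 0% = median of negative and 100% = median of positive control wells; the first replicate is given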
# Yeast UUG start – yeast start codon fidelity modulation | S. cerevisiae UUG-firefly luciferase reporter, luminescence/redox ratio | activity score, % at 18.7 µM | actives 0.13% (n = 350,000) | AID 602363;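 active = replicate mean at a twofold rise or more, about +100% in these data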;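 also: firefly luciferase made from a UUG start codon reports start codon fidelity; reporter light over untreated wells divided by growth signal over untreated wells; some hits fall short of that in this replicate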
# eIF4H inh retest – further read-out of eIF4H inh, marked with its call; inhibition, %; compound at 20 µM; confirmation average;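 mean of two retest wells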
# PABP FP inh retest – also measured in PABP FP inh; calls as there; inhibition, %; compound at 20 µM; confirmation repeats;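 mean of two retest wells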
# MT1-MMP act inh RFP – further read-out of MT1-MMP act inh, marked with its call; RFP signal change, %; measured here: RFP expression control read;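 0 = vehicle wells; hits needed this value within 50% of zero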
# An asterisk follows results filed as active; i = inactive; ? = inconclusive; . = no result given; & = joins results of further samples.
SMILES,Rce1 inhib,eIF4H inh,MT1-MMP act inh,MT1-MMP act inh RFP,PABP FP inh,HIV Env fusion,CSC inhib,Yeast UUG start,others
Cn1ccnc1P(=S)(c1nccn1C)N1CCOCC1,i,-11.4,-0.4,1.2,-6.2,-7.0,-9.5,-22.3,
Cc1ccc(S(=O)(=O)c2nc(-c3ccccc3Cl)oc2N(C)C2CCN(C)CC2)cc1,.,.,-1.1,-1.6,.,0.5,41.5,-5.0,
CCCNC(=O)N1[C@H]2CC[C@@H]1C(C(=O)OC)=C(c1ccc(F)cc1OCc1ccccc1)C2,.,.,-1.6,-0.3,.,.,22.7,8.5,
CN1CCN(c2nc3ccccc3o2)CC1,i,0.0,-4.2,1.4,3.3,-73.7,-14.8,-16.6,
CCC(=NC1CC1)c1c(O)n(-c2ccc(OC)cc2)c(=O)[nH]c1=O,i,-7.3,-0.6,3.3,-5.1,.,-0.5,.,
Cc1ccc(OCCSC2=NN2c2cc(C)nc(N)n2)cc1,i,-15.9,1.1,1.6,6.7,3.2,-5.2,.,
Cc1ccsc1C(=O)C1CCCN(Cc2cccn2-c2ccccn2)C1 (stereo not given),i,-5.6,-4.3,-0.1,-6.9,-10.4,-0.1,-17.1,
COc1ccc(C2NCc3ccc4c(c3-n3cccc32)OCO4)cc1OC (stereo not given),i,-8.3,-0.8,0.5,-13.4,.,22.2,-26.1,
CC(=NCCc1ccccc1)c1c(O)n(C)c(=O)n(C)c1=O,i,-5.1,-0.2,2.6,3.9,3.6,5.9,.,
CN1C(=O)C(=Cc2ccccc2OCc2ccccc2Cl)C(=O)N(C)C1=O,i,7.1,0.9,1.1,-3.2,-4.8,19.0,.,
CN1C(=O)C(=Cc2cn(CC(=O)N3CCCC3)c3ccccc23)C(=O)N(C)C1=O,i,?,-3.7,0.7,?,0.3,-21.4,-4.4,
CC1CCC(C(C)C)C(OP(N)(=O)c2ccccc2)C1 (stereo not given),i,-5.7,-0.2,1.2,-10.2,-38.0,.,4.2,
COc1ccc(CN2CCN(C(=O)Cc3ccccc3)CC2)c(OC)c1,i,11.3,0.6,3.6,3.4,.,10.1,.,
c1ccc(CNCCc2c[nH]c3ccccc23)cc1,i,7.0,-4.0,0.5,-4.7,15.2,-4.3,-18.2,
Cc1ccc2nc3c(cc2c1)CC1(C(=O)N(C)C(=O)N(C)C1=O)C1COCCN31 (stereo not given),i,-1.2,2.2,3.3,4.7,-31.7,0.6,-10.8,
CCCC(C)C1(CC)C(=O)NC(=Nc2ccc(F)cc2)NC1=O (stereo not given),i,-3.6,-4.8,-2.1,-10.7,.,4.0,-7.6,
O=c1c2ccccc2nc(-c2ccco2)n1-c1cccnc1,i,-3.0,2.8,1.1,8.7,.,-16.2,-0.2,
CCOC(=O)c1cc2c(cn1)[C@H](CCO)NC2,.,.,3.0,3.9,.,-0.4,.,1.5,
COc1ccc(N=Cc2c(O)n(CC3CCCO3)c(=O)[nH]c2=O)cc1 (stereo not given),i,-8.9,4.5,4.3,11.8,-4.9,28.3,.,
C[C@]12CC[C@H](O)C[C@@H]1CC[C@@H]1[C@@H]2CC[C@]2(C)C(=O)CC[C@@H]12,i,-2.5,2.8,0.5,2.0,12.5,-2.3,-1.9,
CCCCCCn1c(O)c(C=NCCCn2ccnc2)c(=O)[nH]c1=O,i,124.6,-39.1,1.5,117.1,.,.,-20.4,eIF4H inh retest=-7.9;PABP FP inh retest=5.0
COc1ccccc1/C=C1/C(=N/O)C2CCN1CC2,i,3.0,2.3,2.9,7.9,.,-3.1,-5.8,
CCCCn1c(O)c(C=NCc2ccc3c(c2)OCO3)c(=O)[nH]c1=O,i,-7.9,-5.1,-2.5,0.4,0.5,-5.4,.,
Cc1cc(OCc2ccc([N+](=O)[O-])cc2)c2c3c(c(=O)oc2c1)CCCC3,i,-4.3,1.7,-3.8,-3.0,10.0,-7.6,-12.1,
Fc1cccc(-c2ccc3c(c2)CN(c2cccc(Cl)c2)Cc2cnnn2-3)c1,.,.,2.7,-3.2,.,-106.1,.,-0.8,

# Arranged by formula weight (smallest number first): some entries from above
SMILES,Rce1 inhib,eIF4H inh,MT1-MMP act inh,MT1-MMP act inh RFP,PABP FP inh,HIV Env fusion,CSC inhib,Yeast UUG start,others
O=c1c2ccccc2nc(-c2ccco2)n1-c1cccnc1,i,-3.0,2.8,1.1,8.7,.,-16.2,-0.2,
COc1ccc(C2NCc3ccc4c(c3-n3cccc32)OCO4)cc1OC (stereo not given),i,-8.3,-0.8,0.5,-13.4,.,22.2,-26.1,
Fc1cccc(-c2ccc3c(c2)CN(c2cccc(Cl)c2)Cc2cnnn2-3)c1,.,.,2.7,-3.2,.,-106.1,.,-0.8,

# Other entries.
SMILES,Rce1 inhib,eIF4H inh,MT1-MMP act inh,MT1-MMP act inh RFP,PABP FP inh,HIV Env fusion,CSC inhib,Yeast UUG start,others
CC(C)CCNC(=O)CN1C(=O)CN=C(c2ccccc2)c2ccccc21,i,3.9,3.3,-2.0,-5.5,14.9,-9.6,-7.1,
O=P(Oc1ccccc1)(Oc1ccccc1)N1CCOCC1,.,.,-0.2,1.5,.,2.1,.,-9.3,
CCOC(=O)c1cccc([P+](=O)O)c1,i,-12.7,1.8,-3.1,3.5,-100.3,-3.6,-4.4,
COc1cc(CC2(CCc3ccncc3)C(=O)N(C)C(=O)N(C)C2=O)cc(OC)c1OC,i,-12.2,0.8,-5.7,0.9,10.2,-6.6,.,
O=c1[nH]c(=O)n(C2CCCCC2)c(O)c1C=NCCCn1ccnc1,i,-1.8,-5.5,-2.4,11.1,.,-8.6,-10.7,
COc1ccc2c(C)c(CC(=O)N3C[C@H]4C[C@@H](C3)c3cccc(=O)n3C4)c(=O)oc2c1,i,7.0,1.1,5.5,-12.8,.,1.2,5.1,
O=C(O)c1nn(Cc2ccc(Cl)cc2)c2ccccc12,.,.,6.7,5.4,.,-13.7,.,-17.3,
CCOc1cccc(CNC2CN3CCC2CC3)c1 (stereo not given),i,2.1,1.4,3.4,13.5,.,.,-14.8,
COC1CCCCC1NCCc1ccccc1 (stereo not given),i,-2.5,2.7,4.3,6.2,3.7,29.4,.,
Cc1cc(OC(C)C(=O)NCC2CCC(C(=O)O)CC2)c2c3c(c(=O)oc2c1)CCC3 (stereo not given),i,-6.8,14.1,3.3,2.9,-2.6,-12.6,-16.2,
CCC(=O)c1cn(Cc2ccc(C#N)cc2)c2ccccc12,i,-11.4,2.4,0.8,-1.0,.,4.0,-6.7,
Oc1cc2c(cc1CN1CCN(c3ccccc3F)CC1)OCO2,i,-0.5,-6.1,-2.4,5.9,-0.6,9.2,-15.5,
CCCn1c(C(=O)c2ccccc2OC)nc2ccccc21,i,-2.6,-2.6,0.3,0.1,-1.9,-2.8,.,
O=c1[nH]c(=O)n(Cc2ccco2)c(O)c1C=NCCCn1ccnc1,i,-2.7,-6.7,1.7,-0.3,.,4.8,.,
Cn1cc(C(=O)NCc2ccccc2)c2ccccc21,i,-11.2,2.5,2.8,-4.4,13.7,-1.5,-1.7,
COc1cc2c(C(=O)N3CCN(C)CC3)c(C)n(C)c2cc1Br,i,9.1,-2.3,3.3,-1.9,.,.,-17.6,
CC1CCCCN1Cc1cccnc1 (stereo not given),i,15.2,0.5,4.5,0.0,-4.9,-6.6,.,
C[C@@H]1CN([C@@H](C)CO)C(=O)CCCn2nncc2CO[C@H]1CN(C)C(=O)Oc1ccc2ccccc2c1,.,.,-1.6,-2.9,.,33.3,.,-37.7&-1.7,
O[C@@H]1CCCN2CCc3c([nH]c4ccccc34)[C@H]12,i,.,-1.8,11.4,.,.,-9.0,-3.6,
CCOc1cc2c(cc1OCC)-n1cccc1C(c1ccc(F)c(OC)c1)NC2 (stereo not given),i,11.9,5.4,-2.7,12.1,35.9,-0.9,-3.1,
Cc1nn(Cc2ccccc2)c(C)c1C(=O)OCC(=O)Nc1ccccc1SCC#N,i,?,-51.9,-2.8,?,-30.4,-2.2,-20.1,
COc1ccc(/C=C2\C(=N\O)C3CCN2CC3)cc1,.,4.4,2.2,4.8,-6.2,-423.4,-10.0,-14.8,
COc1cccc(C2=NOC(C(=O)N3CCC4(CC3)OCCO4)C2)c1 (stereo not given),i,2.4,3.3,11.7,1.4,-96.7,.,-8.7,
OC1(c2ccc(F)cc2)CCNC1 (stereo not given),i,-13.1,-1.9,-2.4,-5.7,9.9,-9.9,-17.2,
O=C1C2CCN(CC2)C12CC2c1ccc(C(F)(F)F)cc1 (stereo not given),i,-6.8,1.2,3.7,8.1,-0.3,-10.0,.,
# Additional results follow.
SMILES,Rce1 inhib,eIF4H inh,MT1-MMP act inh,MT1-MMP act inh RFP,PABP FP inh,HIV Env fusion,CSC inhib,Yeast UUG start,others
CCC1(C)CC(CCNCc2ccc(N(C)C)cc2)(c2ccc(F)cc2)CCO1 (stereo not given),i,9.6,-4.1,-5.2,9.6,-40.6,15.0,-11.4,
COCCCNC(=O)c1c(N)n(Cc2ccco2)c2nc3ccccc3nc12,i,?,-33.5,7.7,?,4.0,-20.2,-11.8,
N#CC1c2ccccc2-n2nncc2CN1C(=O)c1ccccc1F (stereo not given),.,.,2.9,2.0,.,-14.9,.,-13.0,
COC(=O)C1=C(c2ccccc2OCc2ccccc2)C[C@@H]2CC[C@H]1N2C(=O)NCCN1CCOCC1,.,.,3.8,-4.8,.,-20.8,1.9,-1.2,
COc1ccc(-n2nnnc2C(CCSC)N2CCC3(CC2)C(=O)NCN3c2ccccc2)cc1 (stereo not given),.,.,0.9,0.7,.,-75.4,.,5.3,
COc1ccc(O)c(CN2CCCC(C(=O)c3sccc3C)C2)c1 (stereo not given),i,-6.4,1.3,5.3,-2.0,-11.3,2.3,-7.7,
O=C(c1cc(F)ccc1F)C1CCCN(Cc2ccc3nonc3c2)C1 (stereo not given),i,1.1,4.3,-7.9,6.9,-1.5,11.8,.,
O=C(NC(Cc1cnc[nH]1)C(=O)O)c1ccccc1 (stereo not given),i,-1.6,-0.4,4.0,-10.6,4.4,.,-6.2,
CCCCCCn1c(O)c(C=NCCN2CCOCC2)c(=O)[nH]c1=O,i,6.4,-4.9,2.3,-0.6,17.3,3.1,.,
C=CCN1Cc2ccccc2-n2nncc2C1,.,.,4.8,7.1,.,-13.5,.,-17.4,
COc1ccc(/C=C2/C(=O)NC(=O)N(c3ccccc3)C2=O)cc1CN1C(=O)c2ccccc2C1=O,i,?,-7.9,-5.5,?,.,4.3,-17.5,
CC(Cc1ccccc1)NCCC(=O)NC(C)Cc1ccccc1 (stereo not given),i,-1.0,4.1,-1.6,-0.6,3.8,2.9,-14.1,
NC(=O)c1cn(C2CCCCC2)c2ccccc2c1=O,i,3.0,-6.9,-3.2,9.6,21.0,.,-11.6,
O=c1[nH]c(=S)n(C2CC2)c(O)c1C=NCc1ccc(F)cc1,i,2.3,0.5,-0.5,1.7,-2.8,-2.2,.,
CN(C)CC1CSCCC1(O)c1ccc(Cl)cc1 (stereo not given),i,3.1,0.4,7.3,1.4,-1.8,15.3,-9.7,
Cc1cc(C)c(C(=O)N2CCC3(CC2)OCCO3)c(C)c1,i,1.9,-0.1,1.3,12.6,-29.9,-0.7,-10.8,
C/C(=N\N1CCCCC1c1cccnc1)c1c(O)n(C2CCCCC2)c(=S)[nH]c1=O (stereo not given),i,27.0,-27.9,-6.2,11.3,0.9,45.5,.,
CCOc1cc(C=C2C(=O)NC(=O)NC2=O)ccc1OS(=O)(=O)c1ccccc1,i,-3.0,7.2,6.8,17.4,.,-8.3,-2.7,

# Only part of the results is shown; the hit share may differ from the screen's.
